VDR inh: Inhibitors of the vitamin D receptor (VDR): qHTS | Vitamin D3 receptor (Homo sapiens), P11473 | VDR-SRC2-3 peptide fluorescence polarization, 2 h | Potency, µM, inactives show max response, negative = inhibition, actives largely listed as inhibitors | actives 0.93% (n = 400,000); active = well fitted inhibition curve with a large enough effect; inconclusive = small, poorly fitted or top-dose-only effect, or another doubt; inactive = no such curve, though single readings can be large or run the other way; note: series mostly up to about 120 µM
Target sequence (P11473 whole entry, looked up): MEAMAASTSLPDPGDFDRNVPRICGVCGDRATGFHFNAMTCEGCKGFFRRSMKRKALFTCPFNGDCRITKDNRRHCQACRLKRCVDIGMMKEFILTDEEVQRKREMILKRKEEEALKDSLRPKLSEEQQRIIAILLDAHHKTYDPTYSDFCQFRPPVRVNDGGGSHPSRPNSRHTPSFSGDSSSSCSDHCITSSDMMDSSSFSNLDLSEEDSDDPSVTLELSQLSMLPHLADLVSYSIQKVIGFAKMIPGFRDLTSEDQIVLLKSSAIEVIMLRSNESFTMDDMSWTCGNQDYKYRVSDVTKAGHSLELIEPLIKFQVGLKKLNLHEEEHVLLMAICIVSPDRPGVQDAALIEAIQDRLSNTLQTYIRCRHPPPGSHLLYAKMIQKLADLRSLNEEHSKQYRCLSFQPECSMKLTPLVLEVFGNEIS
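Fluorescence polarization assay measuring small-molecule disruption of VDR binding to the coregulator peptide SRC2-3. Compounds were pin-transferred (23 nl) into the reagent mix and incubated 2 h at room temperature before reading.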
* = called active by the depositor; ? = inconclusive; & = joins results of further samples. % is set by controls: 0 for no effect and ±100 for the full control effect; potency is the fitted concentration of half-maximal effect.

SMILES	VDR inh
Cc1ccc(C(=O)OCC(=O)N2CC(C)CC(C)C2)cc1S(=O)(=O)N1CCCCC1 (configuration not stated)	0%
N#CC1=C(N)SC(N)=C(C#N)C1CCc1ccccc1	-20%
O=C(O)C1=NOC(CNC(=O)c2ccccc2Cl)C1 (configuration not stated)	-18%
O=S(=O)(Nc1ncccn1)c1ccc(NC(=S)Nc2ccccc2Cl)cc1	-11%
Cc1cc2n(n1)SC(Nc1ccccc1)N2 (configuration not stated)	8%
CNC(=S)N(CCc1c(C)[nH]c2ccc(Cl)cc12)Cc1cc(OC)c(OC)c(OC)c1	-1%
COC(=O)C1=C(C)N(Cc2ccccc2)C(=NCCCCO)N[C@H]1CCc1ccccc1	-9%
Cc1ccccc1CSCCNC(=O)C1CCN(S(=O)(=O)Cc2ccccc2)CC1	16%
CC1CCCC(N2CCN(C(=O)c3ccccc3F)CC2)C1 (configuration not stated)	-9%
COc1ccccc1CNC(=O)c1ccc2[nH]c(C)c(C)c2c1	3%
Cc1[nH]c2ccccc2c1C(=O)C(=O)N1CCN(c2ccccc2)CC1	-13%
Cc1cc2cc(CCNC(=O)c3ccc(C)c([N+](=O)[O-])c3)c(=O)[nH]c2cc1C	8%
c1ccc2c(c1)Cn1c-2nc2ccccc21	-13%
CCOC(=O)C1(CCc2ccccc2)CCN(C(=O)c2cccc(C)n2)CC1	-6%
COc1ccc(S(=O)(=O)N2c3cc(C)ccc3OCC2C(C)(C)C)cc1 (configuration not stated)	-1%
CC(C)Oc1ccc(CNC(=O)CCC(=O)N2CC(C)Sc3ccccc32)cc1 (configuration not stated)	-20%
COC(=O)CCNC(=O)c1ccc2nc(Cc3ccc(OC)c(OC)c3)oc2c1	5%
O=C(c1ccc(S(=O)(=O)N2CCOCC2)cc1)N1CCCc2ccccc21	10%
CC12CN3CC(C)(CN(C1)C3c1ccc(Cl)cc1)C2 (configuration not stated)	-12%
COc1ccccc1NC(=O)CSc1nc(N)c(-c2ccccc2)c(=O)[nH]1	-4%
Cc1ccnc(NC(=O)CCC2COc3ccccc3O2)c1 (configuration not stated)	12%
COC(=O)c1ccc(C2/C(=C(/O)c3ccc4c(c3)CC(C)O4)C(=O)C(=O)N2CCN2CCOCC2)cc1 (configuration not stated)	-22%
COc1ccccc1C(c1nnnn1CC1CCCO1)N1CCN(c2ccccc2)CC1 (configuration not stated)	1%
CCN(CC)C(=O)Cn1c(=O)n(CCCCCC(=O)Nc2ccccc2)c(=O)c2sccc21	-5%&8%

Exported in markdown: 2 of the compounds above
| Molecule | VDR inh |
| --- | --- |
| Cc1ccnc(NC(=O)CCC2COc3ccccc3O2)c1 (configuration not stated) | 12% |
| COC(=O)c1ccc(C2/C(=C(/O)c3ccc4c(c3)CC(C)O4)C(=O)C(=O)N2CCN2CCOCC2)cc1 (configuration not stated) | -22% |

Next part.
SMILES	VDR inh
CN(C)c1nc(NCc2ccccc2)nc(N/N=C/c2cccc(Br)c2)n1	?
COc1ccc(/C(CC2(O)C(=O)Nc3ccccc32)=N\O)cc1 (configuration not stated)	0%
COc1cc(NS(=O)(=O)c2ccc(NS(=O)(=O)c3ccc(NC(C)=O)cc3)cc2)nc(OC)n1	5%
Cc1cc2nncn2c2ccccc12	7%
O=C(O)c1ccccc1Nc1ccccc1	-15%&-8%
CC1(C)OC(=O)N(c2ccccc2)C12C=Cc1cc(Br)ccc1O2 (configuration not stated)	-6%
CCCc1[nH]nc2c1C(c1cccc(OC)c1)C(C#N)=C(N)O2 (configuration not stated)	-1%
COc1cccc(/C=C/C(=O)OCC(=O)N2CCN(c3ccccc3)CC2)c1	-20%
Brc1ccccc1-n1nnc(-c2ccnc3ccccc23)n1	?
COc1cc(CNCCNC(=O)c2cccs2)cc(OC)c1OC	2%
Cc1cc(C)cc(OCc2ccc(C(=O)NC3CCOC3=O)o2)c1 (configuration not stated)	-28%
CCCn1nnnc1NCc1ccc(C(C)C)cc1	-13%
O=C(CSc1nc(-c2ccccc2)c(-c2ccccc2)o1)Nc1nncs1	6%
C[C@H](CO)N1C[C@H](C)[C@@H](CN(C)Cc2ccc(Cl)c(Cl)c2)Oc2ccc(NC(=O)Cn3cnnn3)cc2C1=O	-22%
O=c1[nH]c(S)c(/C=C2\C=Nc3ccccc32)s1	?
Cc1cccc(NC(=O)CN2C(=O)N/C(=C/c3ccc(C)s3)C2=O)c1	-9%
CC(=O)N1CCC(N2CCN(Cc3ccc(C)cc3)C(CCO)C2)CC1 (configuration not stated)	-17%
Cn1c(COc2ccccc2)nnc1SCC(=O)c1cccc([N+](=O)[O-])c1	-2%
CCCCCOC(=O)C1=C(C)Nc2nnnn2C1c1ccc(OC)c(OC)c1OC (configuration not stated)	4%
CC(C)n1nnnc1SCC(=O)Nc1ccc2c(c1)OCO2	6%
CC(C)c1ccc(CN2CCSCC2)cc1	-13%
Cc1ccc(-n2c([S-])c(C(=O)Nc3ccc(OC(F)F)cc3)[n+]3ccc(C(=O)NCCO)cc23)cc1C	-21%
COc1ccccc1N(CC(=O)NC1CCCCC1)S(=O)(=O)c1cccs1	-1%
C=CCNC(=O)C1CC(=O)N(c2ccc(Br)cc2)C1 (configuration not stated)	6%
C=CCNC(=S)NNC(=O)c1ccco1	-3%
CCOc1cc(C2C(C#N)=C(N)Oc3n[nH]c(CC)c32)ccc1OCCN1CCOCC1 (configuration not stated)	-2%
CC1CCCN(S(=O)(=O)c2ccc(NC(=O)CN3CCCCC3)cc2)C1 (configuration not stated)	-11%
Cc1c(/C(O)=C2\C(=O)C(=O)N(CCN(C)C)C2c2ccccc2)cnn1-c1ccccc1 (configuration not stated)	-12%
FC(F)(F)c1cccc(N2CCN(C3CC4CCC3C4)CC2)c1 (configuration not stated)	6%
CCOc1ccc(CCNC(=O)COC(=O)c2cc(S(=O)(=O)N3CCOCC3)ccc2F)cc1OCC	-7%
Cc1ccc(S(=O)(=O)c2nc(S(C)(=O)=O)sc2NCc2ccc3c(c2)OCO3)cc1	-20%
CC(=O)Nc1ccc(S(=O)(=O)NN=Cc2ccc(Cl)c(Cl)c2)cc1	-7%
O=C(COc1ccc(Br)cc1CO)Nc1ccc(S(=O)(=O)N2CCCCC2)cc1	-4%
N#CCN(C(=O)COC(=O)C1CC2CCCC(C1)C2=O)c1ccccc1 (configuration not stated)	-7%
CCCCC(CC)Cn1c(O)c(/C=C2\C=NN=C2c2ccccc2)sc1=S (configuration not stated)	-9%
CC[C@@]1(C(=O)OC)N[C@H](CN(C)S(=O)(=O)c2ccc(C(C)(C)C)cc2)[C@@H]2C(=O)N(C)C(=O)[C@@H]21	-8%
Cc1ccccc1NNC(N)=S	-15%
COc1ccc(C(=O)N2CCCC(Nc3ccc(F)cc3)C2)c(OC)c1 (configuration not stated)	1%
Cc1ccccc1-n1c(=S)[nH]c2nc3c(cc2c1=O)COC(C)(C)C3	-23%
N/C(COc1ccccc1)=N\NS(=O)(=O)c1ccccc1	11%
Cc1c(C(=O)NCCN2CCOCC2)oc2ccc(Br)cc12	-2%
CN(c1ccc(OCC(=O)N2CCC(C(N)=O)CC2)cc1)S(=O)(=O)c1cccs1	-1%
Fc1ccc(-n2ncc3c(N4CCN(Cc5ccccc5)CC4)ncnc32)cc1	5%
CCOc1cc(N2CCOCC2)c(OCC)cc1NS(=O)(=O)c1ccc(Cl)s1	-3%
c1c(CC2CCCC2)nnn1C[C@H]1CC[C@@H]([C@@H]2CC[C@H](Cn3cc(CC4CCCC4)nn3)O2)O1	-20%
COc1ccc(CCNC(=O)c2nc(SCc3ccccc3F)ncc2Cl)cc1OC	-7%
CC(C)=CC(=O)Nc1ccccc1C(N)=O	-6%
CC(=O)Nc1ccc(/C=N/N2C(C)CCCC2C)cc1 (configuration not stated)	-23%
CCOC(=O)c1c(C)n(C)c2ccc(OCC(N)=O)cc12	5%
CC(=O)N(Cc1cc2ccccc2[nH]c1=O)c1ccc(C)cc1	0%
C/C(=N\NC(=O)CN(c1ccc(Oc2ccccc2)cc1)S(C)(=O)=O)C(C)(C)C	1%
Cc1ccc(NC(=O)N2CCC(O)(c3ccc(Cl)cc3)CC2)cc1	8%
C[C@H](CO)N1C[C@H](C)[C@@H](CN(C)C(=O)NC2CCCCC2)Oc2c(NS(=O)(=O)c3ccc(F)cc3)cccc2C1=O	4%
CCOC(=O)c1[nH]c(C)c(/C(O)=C2\C(=O)C(=O)N(CCN3CCOCC3)C2c2ccco2)c1C (configuration not stated)	29%
Cc1cccc(N(CC(=O)O)CC(=O)O)c1	6%
CCCn1c2ccccc2c2cnn(CC(=O)NCCc3ccc(C)cc3)c(=O)c21	8%
COc1cccc(CNCCCSc2nnnn2C)c1OC	10%
O=c1n(-c2ccc(Br)cc2)cnn1-c1ncccc1[N+](=O)[O-]	-9%
CCOC(=O)c1cnc2c(Cl)c(Cl)ccc2c1N1CCN(C)CC1	6%
O=C(NC1CCCC1)C(c1ccccn1)N(C(=O)c1csnn1)C1CCCCC1 (configuration not stated)	?

(list continues)
SMILES	VDR inh
CCC(CC)C(=O)Nc1nnc(SCc2cc(=O)n3cccc(C)c3n2)s1	6%
CC1CCC(NC(=O)C(NC(=O)c2ccccc2)C(C)C)CC1 (configuration not stated)	-10%
O=C(NCc1cccc(Cl)c1)NCc1noc2ccccc12	-4%
CCCCCCn1cc(C(=O)O)c(=O)c2cc(F)c(N3CCCCC3)cc21	-14%
Cc1ccc(O)c(CC(C)C)n1	7%
O=C1CCCN1S(=O)(=O)c1ccccc1	5%
Cc1ccc(-n2cc(CNCCCN3CCCC3=O)c(-c3ccc(F)cc3)n2)cc1	3%
Cc1ccc(-c2cc(O)cc3sc(=O)oc23)cc1C	-6%
CCOC(=O)CSc1nc(CC)nc2ccccc12	0%
Cc1cccc(C(=O)Oc2c(Sc3ccccc3)c(C)nn2C(C)(C)C)c1	-27%
C=CCNC(=O)c1ccc(-c2nc3ccccc3nc2-c2ccccc2)cc1	-8%
CC(C)OC(=O)c1ccc(NC(=O)C2C3CC4OC(=O)C2C4C3)cc1 (configuration not stated)	-1%
CCOC(=O)CC(=O)CSc1nc2ccc(OC)cc2cc1C	-11%
CCn1c(SCC(=O)Nc2nccs2)nnc1-c1ccccc1	-6%
CCc1ccc(CNc2ccc3c(c2)ncn3C)cc1	-4%
Cc1ccc2nc(NS(=O)(=O)c3ccc(Cl)cc3)c(Nc3ccc(C(=O)O)cc3)nc2c1	?
O=C(O)c1cc(N/N=C/c2ccc(-c3ccccc3)cc2)ccc1Cl	?
CC1(C)OC(=O)C=C[C@]2(C)[C@H]3CC[C@@]4(C)[C@H](c5ccoc5)OC(=O)[C@H]5O[C@]54[C@]3(C)C(=O)C[C@@H]12	16%
O=C(Nc1ccnn1C1CCN(Cc2cccc(O)c2)CC1)C1CCCC1	1%
O=C(c1csnn1)N1CCC2(CCCN(c3ccccn3)C2)CC1	-19%
O=C(O)c1ccc2c(c1)C(=O)N(c1ccc(/C=C/C(=O)c3ccccc3)cc1)C2=O	20µM*
CSc1ccc(CNC(=O)C(C)n2nc(C)c3c(C)n(-c4ccccc4)nc3c2=O)cc1 (configuration not stated)	-21%
CCN(CC)CCCn1c2c(c(SCC(=O)Nc3cccc(C(C)=O)c3)nc1=O)CCC2	2%
NCCCCCCC(O)(P(=O)(O)O)P(=O)(O)O	11%
COC(=O)c1ccc2c(=O)n(CCCCCC(=O)N3CCN(c4ccc(F)cc4)CC3)c(=O)[nH]c2c1	17%
O=C(NCCCN1CCOCC1)c1cc(-c2cccc(O)c2)on1	-7%
CC(C)CC(c1nnnn1C1CCCC1)N1CCC(C(N)=O)CC1 (configuration not stated)	5%
O/N=C/c1ccc(OCC(O)COc2ccc(/C=N/O)cc2)cc1	8%
CC(C)(C)[C@H]1C=C(C(=O)N2CCN(Cc3ccccc3)CC2)O[C@@H](OCCCCO)C1	-5%
O=[N+]([O-])c1cccc(/C([O-])=C(/C(=S)Nc2ccccc2)[n+]2ccccc2)c1	?
COc1ccc(C2N(C(=O)c3ccccc3)CCN2C(=O)c2ccccc2)cc1	14%
Cc1cccc(NC(=O)CCS(=O)(=O)c2cccc3nsnc23)c1C	-3%&-16%
COc1ccc([N+](=O)[O-])cc1N1C(=O)c2cccc3cccc(c23)C1=O	0%
CC(=O)/C(C#N)=C1\NC(=O)C(Cc2ccccc2Cl)S1 (configuration not stated)	-15%

Some of the entries so far, bar-delimited.
Compound | VDR inh
CCc1ccc(CNc2ccc3c(c2)ncn3C)cc1 | -4%
Cc1ccc2nc(NS(=O)(=O)c3ccc(Cl)cc3)c(Nc3ccc(C(=O)O)cc3)nc2c1 | ?
O=C(O)c1cc(N/N=C/c2ccc(-c3ccccc3)cc2)ccc1Cl | ?
CC1(C)OC(=O)C=C[C@]2(C)[C@H]3CC[C@@]4(C)[C@H](c5ccoc5)OC(=O)[C@H]5O[C@]54[C@]3(C)C(=O)C[C@@H]12 | 16%
O=C(Nc1ccnn1C1CCN(Cc2cccc(O)c2)CC1)C1CCCC1 | 1%
O=C(c1csnn1)N1CCC2(CCCN(c3ccccn3)C2)CC1 | -19%
O=C(O)c1ccc2c(c1)C(=O)N(c1ccc(/C=C/C(=O)c3ccccc3)cc1)C2=O | 20µM*
CSc1ccc(CNC(=O)C(C)n2nc(C)c3c(C)n(-c4ccccc4)nc3c2=O)cc1 (configuration not stated) | -21%
CCN(CC)CCCn1c2c(c(SCC(=O)Nc3cccc(C(C)=O)c3)nc1=O)CCC2 | 2%
NCCCCCCC(O)(P(=O)(O)O)P(=O)(O)O | 11%
COC(=O)c1ccc2c(=O)n(CCCCCC(=O)N3CCN(c4ccc(F)cc4)CC3)c(=O)[nH]c2c1 | 17%
O=C(NCCCN1CCOCC1)c1cc(-c2cccc(O)c2)on1 | -7%
CC(C)CC(c1nnnn1C1CCCC1)N1CCC(C(N)=O)CC1 (configuration not stated) | 5%
O/N=C/c1ccc(OCC(O)COc2ccc(/C=N/O)cc2)cc1 | 8%
CC(C)(C)[C@H]1C=C(C(=O)N2CCN(Cc3ccccc3)CC2)O[C@@H](OCCCCO)C1 | -5%
O=[N+]([O-])c1cccc(/C([O-])=C(/C(=S)Nc2ccccc2)[n+]2ccccc2)c1 | ?
COc1ccc(C2N(C(=O)c3ccccc3)CCN2C(=O)c2ccccc2)cc1 | 14%

Screening data: PubChem BioAssay, National Center for Advancing Translational Sciences (NCATS)

Not all compounds are listed; the hit share may differ from the screen's.
